High-throughput results deposited in PubChem BioAssay by National Center for Advancing Translational Sciences (NCATS).
MARV entry inh = inhibitors of Marburg virus binding or cell entry | AID 540276 | Potency, µM (highest dose often 37.8 µM), for inactives: top-dose activity change, negative = inhibition, actives largely listed as inhibitors | Marburg virus pseudotyped entry inhibition, cell reporter; control for the full effect not named in the record; about a third of the inactives were read at about 46 µM | 1.8% of 300,000 active; active = well fitted inhibition curve with a large enough effect; inconclusive = small, poorly fitted or top-dose-only effect, or effect the other way; inactive = flat fitted curve, though single readings scatter; tested in HEK293 cells; about a fifth of its hits are not listed in these tables; also: % is scaled to controls: 0 for no effect and ±100 for the full control effect; luciferase read-out
RE007 growth inh = less growth of the S. pombe RE007 Vpr strain | AID 651644 | 0.21% of 360,000 active | S. pombe RE007 Vpr strain, BacTiter-Glo ATP luminescence, 24 h; control for the full effect not named in the record | Potency, µM (highest dose often 92.2 µM), for inactives: at the highest dose activity change, negative = less growth; active = well fitted falling curve with a large enough effect; inconclusive = small, poorly fitted or top-dose-only effect; inactive = no such curve, though single readings can be large or run the other way;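 also: % is scaled to controls: 0 for no effect and ±100 for the full control effect; nearly all actives have a fitted effect of over 50% in size; the assay follows cell death caused by Vpr and the record does not say whether a fall means rescue or toxicity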
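Fission yeast RE007 carrying one integrated HIV-1 vpr copy, seeded at OD 0.01 in PMG+AL medium with 23 nL pinned compound. Grown 24 h at 30 degrees; viability read by BacTiter-Glo luminescence after 5 min.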
Cruzain Triton = inhibitors of Trypanosoma cruzi cruzain with detergent; P25779; purified cruzain, Z-FR-AMC fluorescence, 0.01% Triton; Potency, µM, inactives show max response, negative = inhibition, hits mostly inhibitors; 0.43% of 200,000 active; AID 1478; active = well fitted curve in the direction sought with a large enough effect; inconclusive = small, poorly fitted or top-dose-only effect, or another doubt; inactive = no such curve, though single readings can be large; an effect the other way counts as inactive or inconclusive;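 also: plate controls were neutral wells for no effect and buffer without enzyme for full effect; nearly all actives have a fitted effect of over 40% in size; top concentration of the series not given in the record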
Target sequence (P25779 123-467 limits assumed): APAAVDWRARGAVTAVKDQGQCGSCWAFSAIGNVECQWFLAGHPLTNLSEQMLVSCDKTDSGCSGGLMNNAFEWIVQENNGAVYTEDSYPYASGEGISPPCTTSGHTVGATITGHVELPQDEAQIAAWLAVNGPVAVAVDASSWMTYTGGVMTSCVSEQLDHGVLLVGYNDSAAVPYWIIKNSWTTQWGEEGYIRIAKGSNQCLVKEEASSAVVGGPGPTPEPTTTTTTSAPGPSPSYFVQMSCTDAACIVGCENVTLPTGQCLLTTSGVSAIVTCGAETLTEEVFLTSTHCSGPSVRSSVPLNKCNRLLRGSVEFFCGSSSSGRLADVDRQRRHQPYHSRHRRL
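In this qHTS format, compounds are incubated with 1.5 nM cruzain for 15 min at room temperature before 2 uM Z-FR-AMC is added. Release of AMC is followed at 360/450 nm, and progress is taken as the 60 s fluorescence difference.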
StopGo reporter = lowers the luciferase signal of an FMDV 2A StopGo reporter. human cells with a luciferase reporter of 2A StopGo recoding; control for the full effect not named in the record. Potency, µM (series often up to 57.9 µM), for the others: at the top dose signal change, negative = less light. 1.2% of 410,000 active. AID 1159524; active = well fitted falling curve with a large enough effect; inconclusive = small, poorly fitted or top-dose-only effect; inactive = no such curve, though single readings can be large or run the other way; tested in HEK293T cells; also: % is scaled to controls: 0 for no effect and ±100 for the full control effect; nearly all actives have a fitted effect of over 45% in size; luciferase light after 4 h
Lassa entry inh = inhibitors of Lassa virus binding or cell entry; Lassa virus pseudotype entry inhibition, cell reporter; control for the full effect not named in the record; Potency, µM (titrated, usually from 37.9 µM), without a hit: top-dose activity change, negative = inhibition, hits mostly inhibitors; 1.2% of 300,000 active; AID 540256; active means well fitted inhibition curve with a large enough effect; inconclusive means small, poorly fitted or top-dose-only effect, or effect the other way; inactive means flat fitted curve, though single readings scatter; tested in HEK293 cells; also: % is scaled to controls: 0 for no effect and ±100 for the full control effect; nearly all actives have a fitted effect of over 50% in size; luciferase read-out
Cruzain inh noDet = blocks cruzain activity in detergent-free assay | purified cruzain, Z-FR-AMC fluorescence, no detergent | Potency, µM, without a hit: max response, negative = inhibition, most hits filed as inhibitors | 2.3% of 200,000 active | AID 1476; active = well fitted curve in the direction sought with a large enough effect; inconclusive = small, poorly fitted or top-dose-only effect, or another doubt; inactive = no such curve, though single readings can be large; an effect the other way counts as inactive or inconclusive;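 also: plate controls were enzyme without inhibitor for no effect and buffer without enzyme for full effect; nearly all actives have a fitted effect of over 40% in size; top concentration of the series not given in the record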
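Detergent-free condition (0.00005% Triton X-100) in acetate buffer pH 5.5 with DTT. 1.5 nM enzyme and compound were pre-mixed 15 min, then 2 uM Z-FR-AMC substrate added; reaction progress from fluorescence change between first and third reads (60 s).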
SARS PLpro yeast = blocks SARS-CoV papain-like protease in a yeast assay; S. cerevisiae expressing SARS-CoV PLpro, growth rescue; control for the full effect not named in the record; Potency, µM (series often up to 32.9 µM), for inactives: at the highest dose activity, positive = growth rescue; 0.19% of 330,000 active; AID 485353; also: 0% is about no effect; nearly all actives have a fitted effect of over 55% in size; growth read by luminescence after 48 h
NS1 inh = influenza NS1 inhibition; S. cerevisiae slowed by influenza A NS1, growth recovery by OD600; Potency, µM (series often up to 46.1 µM), without a hit: top-dose activity, positive = more growth; 0.4% of 270,000 active; AID 2326; also: actives are rising curves; nearly all actives have a fitted effect of over 50% in size
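Recovery from NS1-induced slow growth read by OD600 in budding yeast switched to galactose assay medium (pH 6.0, -URA) at 1:100 dilution. Compound 23 nl per well; the matching strain lacking NS1 serves as control.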
Active calls of the source: *; ? = inconclusive; . = not tested or not shown; [ ] = remark or other dose. Unless noted, calls follow the shape of the dose curve; as a rule, active means well fitted rising curve with a large enough effect; inconclusive means small, poorly fitted or top-dose-only effect; inactive means no such curve, though single readings can be large or run the other way. Potency is read from the fitted curve at half-maximal effect.

item	structure	MARV entry inh	RE007 growth inh	Cruzain Triton	StopGo reporter	Lassa entry inh	Cruzain inh noDet	SARS PLpro yeast	NS1 inh
1	Cc1ccc(C(=O)COC(=O)c2cnccn2)cc1[N+](=O)[O-]	1.8%[46.1 µM]	10.6%	.	-3.7%	-11.3%	.	-2.3%	2.8%
2	O=C(Cc1csc(-c2ccccc2)n1)Nc1ccc(C(F)(F)F)cc1	3.4%	8.1%	-8.5%	-28.3%	-4.7%	-3.8%	-0.6%	-9.6%
3	COc1cc(/C=C2/SC(=S)N(CC(=O)Nc3cccnc3)C2=O)cc(OC)c1OC	-20.9%	-17.2%	-4.7%	-22.5%	-7.1%	?	7.9%	-5.3%
4	COc1ccc(NC(=S)N2CCCC(c3nc4ccc(C)cc4[nH]3)C2)cc1 (stereo not drawn)	-21.6%	-2.0%	.	2.5%	?	.	10.9%	-2.2%
5	COc1ccc(CCCC(=O)NC2CCCCC2)cc1	-13.5%	-3.0%	3.2%	0.0%	-31.1%	6.8%	1.8%	-6.8%
6	Cc1c(CC(=O)N2CCN(C(=O)C3COc4ccccc4O3)CC2)c(=O)oc2cc(O)c(Cl)cc12 (stereo not drawn)	.	-5.0%	.	-13.1%	.	.	5.8%	22.6%
7	CCOc1cc(C(=S)N2CCOCC2)ccc1OC(=O)c1ccccc1	.	4.8%	.	-13.9%	.	.	-1.6%	3.1%
8	COc1ccc(CNC(=O)/C=C/c2ccc(S(=O)(=O)N3CCOCC3)cc2)cc1	-4.5%[46.1 µM]	28.6%	.	-8.9%	-2.2%	.	-0.4%	.
9	CCOc1ccccc1N1CCN(C(=O)CCCN2C(=O)c3cccc4cccc(c34)C2=O)CC1	?	-2.4%	-8.7%	?	-9.4%	?	-18.7%	-9.5%
10	CCc1cccc(NC(=O)CCNS(=O)(=O)c2ccc3c(c2)CCN3C(C)=O)c1	1.1%[46.1 µM]	.	-2.2%	-10.8%	0.5%[46.1 µM]	0.4%	.	.
11	CN1CCN(CC(=O)N2CCn3c4c(c5cc(C6CCCCC6)ccc53)CCCC42)CC1 (stereo not drawn)	?	?	-7.1%	?	?	?	-14.6%	-75.2%
12	Cc1c(Cl)cccc1-n1ncc(C(=O)Nc2ccc(Br)cc2F)c1C1CCNCC1	.	.	-11.7%	?	1.7%[46.1 µM]	-11.9%	.	.
13	Cc1cc(OCC(=O)OCC(=O)NCc2cccs2)ccc1Cl	3.5%	2.5%	.	-6.1%	10.3%	.	-2.5%	.
14	C=CCN1C(=O)N(c2ccc(F)cc2)C(=O)C1CC(=O)Nc1ccc(Cl)cc1 (stereo not drawn)	?	-10.7%	.	8.0%	?	.	-1.0%	-3.9%
15	Clc1ccc(OCCCCCN2CCCC2)c(Br)c1	?	-13.3%	-4.9%	-0.3%	?	-12.5%	-14.0%	-5.1%

The list continues.
item	structure	MARV entry inh	RE007 growth inh	Cruzain Triton	StopGo reporter	Lassa entry inh	Cruzain inh noDet	SARS PLpro yeast	NS1 inh
16	COCc1cc(=O)[nH]c(SCCS(=O)(=O)c2ccc(Cl)cc2Cl)n1	.	-5.5%	.	-16.5%	.	.	-0.3%	-7.1%
17	O=C(N/N=C\c1ccc(OC(=O)c2cccs2)cc1)c1ccc(Cl)cc1	?	-1.1%	-20.7%	26.6%	3.1%	10µM*	-8.5%	-17.1%
18	O=C(COC(=O)c1cc(Cl)cc(Cl)c1)NCCN1C(=O)CSC1=O	14.9%	.	-5.5%	-7.7%	11.3%	-1.5%	-3.6%	1.1%
19	Cc1nc2ccccc2nc1OCc1ccc([N+](=O)[O-])cc1	13.1%[46.1 µM]	-3.5%	.	-13.0%	-0.8%[46.1 µM]	.	0.5%	0.7%
20	COc1cccc(NC(=O)NC(=O)c2c(C)cc(Cl)nc2Cl)c1	.	-5.3%	.	-12.6%	.	.	-18.5%	-7.9%
21	O=[N+]([O-])c1cc(-c2nc(-c3ccccn3)no2)ccc1NCc1ccccc1	11.7%[46.1 µM]	.	-1.7%	27.9%	-6.7%[46.1 µM]	9.0%	.	.
22	CC(=O)n1nc(-c2ccccc2)nc1NCc1cccs1	4.9%	-15.8%	.	50.1%[activator]	20.5%	.	0.0%	-3.5%
23	CC(=O)N=c1sc2c3ccccc3ccc2n1C	21.5%	-5.8%	2.1%	.	?	22.9%	-3.2%	-2.4%
24	Cc1[nH]c2ccccc2c1/C=N/NC(=O)c1cc(-c2cccs2)[nH]n1	-35.9%	-3.5%	-8.4%	-7.2%	-20.7%	-8.7%	-11.9%	-12.2%
25	COc1ccc(-c2nnco2)cc1OC	14.9%	9.5%	5.7%	5.7%	-0.5%	7.6%	?	-9.3%
26	CN(C)CCn1nnc2c(=O)oc3ccccc3c21	5.5%[46.1 µM]	-8.5%	.	-8.2%	9.3%[46.1 µM]	.	-0.5%	2.1%
27	Cc1cccc(OCC(=O)Nc2nonc2NC(=O)COc2cccc(C)c2)c1	5.0%	0.0%	.	-1.4%	-9.2%	.	.	.
28	Cc1c(C)n(C(=O)CSc2nncn2C)c2ccccc12	-21.9%	-0.3%	-2.9%	-10.2%	17.7%	-1.2%	-7.1%	-0.7%
29	COc1ccc2cc(-c3csc(-c4cccnc4)n3)ccc2c1	?	5.7%	-25.4%	30.0%	3.0%	?	-0.4%	?
30	COc1cccc(NC(=O)CN(C)C(=O)c2cc3c(s2)CCC(C)C3)c1 (stereo not drawn)	?	-1.1%	.	-17.8%	9.0%[46.1 µM]	.	-0.8%	.

Continuation:
item	structure	MARV entry inh	RE007 growth inh	Cruzain Triton	StopGo reporter	Lassa entry inh	Cruzain inh noDet	SARS PLpro yeast	NS1 inh
31	CCNC(=O)C(=O)c1c(-c2ccccc2)[nH]c2ccccc12	10.3%[46.1 µM]	-14.1%	.	4.9%	0.5%[46.1 µM]	.	-0.7%	.
32	O=C(NCCOc1ccccc1)c1ccc2c(c1)OCO2	?	10.4%	1.8%	-78.5%	?	-0.7%	0.1%	-9.8%
33	O=C1CCCN2N=C(SCC(=O)Nc3cccc(F)c3)SC2=N1	?	2.7%	.	-17.0%	-16.2%[46.1 µM]	.	-0.1%	9.6%
34	CCN(CC(=O)Nc1ccc2c(c1)OCCO2)CC(=O)Nc1cc(C)on1	?	-9.8%	1.7%	10.5%	1.4%	4.6%	2.8%	-8.2%
35	CCOC(=O)N/N=C/c1cn(Cc2ccc(Cl)cc2)c2ccccc12	?	7.8%	-0.7%	-17.7%	-37.9%	-22.2%	-6.0%	19.4%
36	O=S(=O)(NCc1ccc2c(c1)OCO2)c1c(F)cc(F)cc1Br	?	-3.4%	.	8.1%	23.1%[46.1 µM]	.	-15.1%	8.6%
37	Cc1cc(C)cc(NC(=S)NCCCN2CCOCC2)c1	4.9%	5.9%	-0.1%	-26.7%	11.4%	-9.9%	26.7%	0.1%
38	O=C(O)c1ccc2c(c1)nnn2C1CCCCC1	6.7%[46.1 µM]	3.3%	5.6%	0.8%	20.8%	-9.3%	-0.6%	-82.3%
39	Cc1ccc(OCCSc2nc3ccccc3n2CC(=O)N2CCCCC2)cc1C	?	.	-3.2%	0.0%	-3.6%[46.1 µM]	?	.	.
40	Clc1ccc(Cl)c(-c2nc(-c3ccncc3)no2)c1	-0.3%	-11.5%	.	59.7%[activator]	-7.9%	.	0.3%	8.3%
41	CCc1nc2ccc(C(=O)N3CCN(CC)CC3)cc2nc1CC	.	17.4%	.	-5.4%	.	.	4.0%	0.9%
42	O=C(CCC1CCCC1)N1CCN(C(=O)c2ccco2)CC1	-6.0%	8.5%	0.9%	-22.6%	4.9%	10.2%	2.1%	-3.1%
43	Cc1nc2c(C)cccc2cc1C(=O)N/N=C/c1ccc(C(=O)O)cc1	24.4%[46.1 µM]	-13.3%	.	7.5%	1.0%	.	1.0%	1.5%
44	Cc1ccc(-n2c(C)nnc2SCC(=O)NNC(=O)c2ccco2)cc1	9.4%[46.1 µM]	1.2%	.	9.5%	.	.	1.6%	.
45	C=CCC1(O)C(=O)N2C(=C1C(=O)N1CCOCC1)c1ccccc1CC2(C)C (stereo not drawn)	13.0%	-17.2%	4.0%	-11.3%	7.8%	5.5%	3.9%	-3.6%

The listing continues:
item	structure	MARV entry inh	RE007 growth inh	Cruzain Triton	StopGo reporter	Lassa entry inh	Cruzain inh noDet	SARS PLpro yeast	NS1 inh
46	Cc1ccccc1OCCOC(=O)c1cc(S(=O)(=O)N2CCCCC2)ccc1N1CCOCC1	?	-26.9%	.	?	?	.	10µM*	.
47	CCOc1ccc2[nH]c(=O)c(CN(Cc3ccccc3)C(=O)N3CCCC3)cc2c1	?	19.2%	5.9%	6.2%	-11.1%	-3.9%	1.6%	1.6%
48	Cc1ccc(SC2=C(C(=O)O)CCCC2)cc1	2.5%[46.1 µM]	2.2%	.	8.2%	1.4%[46.1 µM]	.	-18.2%	-57.9%
49	Cc1nc(C)c(C(=O)NN=Cc2ccc(N(CCCl)CCCl)cc2)s1	?	-0.8%	.	-14.7%	7.08µM*	.	.	.
50	CC(C)=CCN1CCN(Cc2c(C)nn(C)c2Cl)CC1CCO (stereo not drawn)	4.8%[46.1 µM]	-3.2%	.	27.8%	7.7%[46.1 µM]	.	0.8%	-2.3%
51	O=C(N/N=C/c1ccncc1)c1cccc(N/N=C/c2ccncc2)c1	?	-11.4%	.	20.5%	11.9%	.	0.7%	.
52	CN(C)c1cc[n+](CC(=O)Nc2ccc([N+](=O)[O-])cc2Cl)cc1	-15.4%	?	0.9%	-15.8%	-2.2%	-12.8%	-4.3%	4.6%
53	C=CCn1c(CCNC(=O)c2ccccc2F)nnc1SCC(=O)Nc1nc2ccccc2s1	-14.4%	-1.8%	-1.6%	-8.4%	-17.2%	17.0%	8.0%	2.7%
54	COc1ccccc1NC(=O)C1=C(C)Nc2ncnn2C1c1ccc(C)o1 (stereo not drawn)	-1.2%	24.5%	-6.0%	-2.7%	-10.1%	5.8%	6.2%	2.5%
55	O=C(CSc1nc2ncccc2o1)Nc1ccc(Cl)cc1F	.	.	-4.4%	15.4%	?	-13.6%	.	.
